KSHV LANA nucl: inhibitors of KSHV LANA binding to nucleosomes | AID 720717 | z-score (no concentration beside the values) | FITC-LANA1-23 / chicken nucleosome fluorescence polarization; stronger effect = lower value | 51,000 tested, 0.3% active;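 active means both repeat wells score below -2 in polarization z-score versus plate sample wells, excluding overly bright wells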;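 further: 100 nL library stock added to about 30 µL; numbers are from one replicate; some results filed as inactive read as strong as hits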
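Material: Purified chicken nucleosomes with FITC-labelled LANA N-terminal peptide (1-23) | Reagent: 50 nM FITC-LANA1-23 probe | Medium: TEN-BT buffer, pH 7.5 | Times: 10–45 min incubation at room temperature | Detection: Fluorescence polarization | Replication: Duplicates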
Ab BasE inh: blocks the Acinetobacter baumannii siderophore enzyme BasE | purified BasE, fluorescence polarization binding displacement | inhibition, % (no concentration beside the values) | 84,000 tested, 0.1% active | AID 485350;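 active means both replicates above 25% with normal brightness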;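 further: 0% = negative plate control signal and 100% = positive plate control signal; stock transfer was 100 nL into about 30 µL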
The depositor's hits bear a star; / = no result given. These rows are one share of the data; the hit share may differ from the screen's.

SMILES	Ab BasE inh	KSHV LANA nucl
COc1ccc(-c2nn(CN3CCOCC3)c(=S)n2-c2ccccc2)cc1OC	0.1	-0.134
CC(C)(C)OC(=O)CN1c2cccc3cccc(c23)S1(=O)=O	-1.9	/
Cn1c(=NC(=O)CCS(=O)(=O)c2ccc(F)cc2)sc2cc(F)ccc21	3.2	0.69
COc1ccc(CCN=C(C)C2=C(O)COC2=O)cc1OC	4.9	/
N#CC1=C2SCN(C3CCCCC3)CN2C(=O)CC1c1ccccc1 (configuration not stated)	2.4	-0.499
COc1ccc(Cl)c(NCCC(=O)O)c1	3.1	/
CN(C)/C=C1/C(=O)c2sccc2N(C)S1(=O)=O	0.8	/
CCCN(C(=O)Cc1coc2cc(OC)ccc12)C1CCS(=O)(=O)C1 (configuration not stated)	2.2	/
CNS(=O)(=O)c1cccc(C(=O)NCCCn2nc(C)cc2C)c1	1.8	/
CCSC1=NC2(CCN(C(=O)Nc3ccccc3)CC2)N=C1c1ccccc1	1.7	/
CCc1noc(C)c1C(=O)OCC(=O)c1ccc2ccccc2c1	-3.8	/
CS(=O)(=O)N1CCCC(C(F)(F)F)C1 (configuration not stated)	1.0	/
CC12CN3CC(C)(CN(C1)C3c1ccccc1)C2O (configuration not stated)	3.0	-0.056
CCOC(=O)Cc1ccc(NC(=O)C(F)(F)C(F)F)cc1	2.2	0.0045
COc1ccc(CNC(=O)C2=C(C(=O)O)CCCC2)cc1	4.7	0.303

Following part
SMILES	Ab BasE inh	KSHV LANA nucl
CC(C)c1ccc2nc(SCC(=O)N3CCCC3)c(C#N)cc2c1	-1.8	-0.0735
CC(C)c1cc(N2CCCC2)n2c(nc3ccccc32)c1C#N	4.1	0.159
CC(C#N)(NC(=O)CN1CCN(c2cccc(C(F)(F)F)c2)CC1)C1CC1 (configuration not stated)	1.0	/
Cc1ccc(OC(=O)c2cc(S(=O)(=O)N3CCCC3)ccc2C)cc1C	2.6	/
O=C(CN1CCCC1)N1c2ccccc2C=Cc2ccccc21	-5.3	-0.328
COc1ccc2nc3oc(C(=O)NC4CCN(Cc5ccccc5)CC4)cc3cc2c1	-0.2	-0.901
O=C(CN1C(=O)c2cccnc2Oc2ccc(Cl)cc21)Nc1ccc(F)cc1	-2.7	-0.68
CCOc1ccc2c(c1)C(C)=CC(C)(C)N2C(=O)C(C)N1C(=O)c2ccccc2C1=O (configuration not stated)	-1.3	-0.0165
Cc1cc(C)nc(-n2nc(C)cc2NC(=O)CNCc2ccccc2)n1	0.0	/
C=CCN(CC=C)C(=O)CSC1=C(C#N)C(C)(C)C(C#N)C(=O)N1 (configuration not stated)	-1.2	/
COC(=O)c1cc(S(=O)(=O)N(CC(C)C)CC(C)C)c[nH]1	1.4	-1.36
CCC1(C)N([O-])C(C)=C(c2ccccc2)[N+]1=O (configuration not stated)	2.3	/
Cc1cc(C)c2c(-n3cccc3)nn(CC#N)c2n1	/	0.798
Cc1ccc(-c2nc(NC(=O)C(C(C)C)N3C(=O)c4ccccc4C3=O)sc2C)cc1 (configuration not stated)	-4.0	/
CC1(C)Cc2ccccc2C(N)=C1C#N	2.0	-1.33

Five of the compounds above, with two lines to a compound.
Every second line gives: Ab BasE inh, KSHV LANA nucl
C=CCN(CC=C)C(=O)CSC1=C(C#N)C(C)(C)C(C#N)C(=O)N1 (configuration not stated)
 : -1.2, /
COC(=O)c1cc(S(=O)(=O)N(CC(C)C)CC(C)C)c[nH]1
 : 1.4, -1.36
CCC1(C)N([O-])C(C)=C(c2ccccc2)[N+]1=O (configuration not stated)
 : 2.3, /
Cc1cc(C)c2c(-n3cccc3)nn(CC#N)c2n1
 : /, 0.798
Cc1ccc(-c2nc(NC(=O)C(C(C)C)N3C(=O)c4ccccc4C3=O)sc2C)cc1 (configuration not stated)
 : -4.0, /

Further structures:
SMILES	Ab BasE inh	KSHV LANA nucl
CCn1c(C)nc2cc(C(=O)N3N=CCC3(O)C(F)(F)F)ccc21 (configuration not stated)	-0.5	/
CO[C@H]1O[C@H](CO)C(O[C@@H]2OC(C(=O)O)[C@@H](O[C@H]3O[C@H](COS(=O)(=O)O)C(O[C@@H]4OC(C(=O)O)[C@@H](O[C@H]5O[C@H](CO)C(O[C@@H]6OC(C(=O)O)[C@@H](O[C@H]7O[C@H](COS(=O)(=O)O)C(O[C@@H]8OC(C(=O)O)=C[C@H](O)C8OS(=O)(=O)O)[C@H](O)[C@H]7NC(C)=O)[C@H](O)[C@H]6O)[C@H](O)[C@H]5NC(C)=O)[C@H](O)[C@H]4O)[C@H](O)[C@H]3NC(C)=O)[C@H](O)[C@H]2O)[C@H](O)[C@H]1NC(C)=O (some centres not stated)	-1.6	-1.39
CSc1ncccc1C(=O)N(Cc1ccccc1)C1CCS(=O)(=O)C1 (configuration not stated)	0.5	/
CN(C)c1cc(C(F)(F)F)nc2c(Cl)c(C(C)(C)C)nn12	3.5	-0.788
Cc1cc(C)n(-c2ncccc2C(F)(F)F)n1	/	0.703
CCOC(=O)c1ccccc1NC(=O)C=C(C)C	3.5	-0.3
COC(=O)c1ccc(CNCC2COc3ccccc3O2)o1 (configuration not stated)	-0.2	/
CCOC(=O)c1[nH]c2sc(C)c(C)c2c1N	-0.4	0.119
O=C1Nc2ccccc2S/C1=C/c1ccc(C(=O)N2CCOCC2)cc1	-3.3	0.222
Cc1nn(CCCC(=O)NC2CCCc3ccccc32)c(=O)c2nccn12 (configuration not stated)	-0.4	-0.654
O=C(CSc1nc2ccccc2n1CC(=O)N1CCCC1)N1CCCCC1	1.1	0.267
COc1ccc(N2C(=O)/C(=C\C=C\c3ccccc3)SC2=S)cc1	0.4	/
COc1ccc(C)cc1CN(C)c1ncnc2ccccc12	2.9	/
Cc1cc(C(=O)NCc2ccc(Cl)cc2)on1	-0.3	-1.31
CCOC(=O)/C=C1\NC2(CCCC2)Cc2cc(OC)c(OC)cc21	1.7	-0.018

The list goes on; it opens with the three that closed the last part.
SMILES	Ab BasE inh	KSHV LANA nucl
COc1ccc(C)cc1CN(C)c1ncnc2ccccc12	2.9	/
Cc1cc(C(=O)NCc2ccc(Cl)cc2)on1	-0.3	-1.31
CCOC(=O)/C=C1\NC2(CCCC2)Cc2cc(OC)c(OC)cc21	1.7	-0.018
Cc1nc(CC(=O)N=Nc2c(O)[nH]c3ccc(F)cc23)cs1	4.3	/
CCc1cc(C(=O)COc2ccc(Cl)cc2)c(O)cc1O	0.7	/
c1ccc(-n2ncc3c(SCC4CCCCO4)ncnc32)cc1 (configuration not stated)	0.8	/
CC1(C)CC(Nc2ccc(Cl)cc2)CCO1 (configuration not stated)	1.0	0.097
Cc1ccccc1NC(=O)COC(=O)c1ccccc1	2.6	/
CNC(=S)Nc1cc2oc3ccccc3c2cc1OC	0.9	/
CCOC(=O)c1c(-c2cccs2)csc1/N=C/c1c(O)n(C)c2ccccc12	14.7	/
CC1CCCC(C)N1/N=C/c1ccc(O)cc1 (configuration not stated)	-1.7	/
CCc1ccc(-c2nc(CS(=O)CC(=O)NCCc3ccccc3)c(C)o2)cc1 (configuration not stated)	-3.4	-0.0705
COC(=O)c1nnn(CC(=O)Nc2ccc(C(C)C)cc2)c1C(=O)OC	2.4	-0.388
Cc1cccc(CC(=O)Nc2ccc3c(c2)OCCO3)c1	1.1	-1.2
CCc1ccc(C(=O)Oc2ccc(C#N)cc2)cc1	0.3	/
OC1(c2ccc(F)cc2)CSC(=Nc2cccnc2)N1Cc1ccco1 (configuration not stated)	0.8	/
CSc1nsc(SC)c1C(=O)N1CCN(S(=O)(=O)c2ccc(C)cc2)C1C(C)C (configuration not stated)	4.9	-0.513
C(=N\n1cnnc1)/c1ccc(OCc2ccccc2)cc1	0.3	0.254

Next part
SMILES	Ab BasE inh	KSHV LANA nucl
Cc1oc2ccc(NS(=O)(=O)c3cccc4cccnc34)cc2c1C(=O)OC(C)C	3.0	-0.748
O=C(Nc1ccc(Cl)cc1)c1cc2ncc(Br)cn2n1	0.5	0.177
O=C(O)CCC1=NNC(=O)CC1	1.5	0.542
CCCCNC(=O)CN1CCN(Cc2cccc(OCC)c2OC)CC1	0.0	/
O=C(Cn1cc(C(F)(F)F)ccc1=O)NCC1COc2ccccc2O1 (configuration not stated)	2.9	/
CCn1ccc(=O)[nH]c1=O	0.8	/
O=C(CSc1nnc(NC2CC2)s1)NC(=O)c1ccccc1	0.3	/
NC(=O)C1CCN(C(=O)C2(c3cccs3)CCOCC2)CC1	0.1	2.06
O=C(O)C1C2C=CC(C2)C1C(=O)NCc1ccncc1 (configuration not stated)	2.2	/
CN(c1cc(C(F)(F)F)ccn1)N1C(=O)c2ccccc2C1=O	1.0	/
CCOC(=O)c1cc(-c2ccc(S(=O)(=O)N(CC)c3cccc(C)c3)s2)on1	-1.3	0.585
Cc1cc(C(=O)CSc2ncnc3c2cnn3-c2ccccc2)c(C)n1C1CCS(=O)(=O)C1 (configuration not stated)	-1.3	/
COC(=O)Nc1c(C)nc2n(C)c3ccccc3n12	2.8	/
Cc1ccc(-c2n[nH]c(CNC(=O)NCc3ccccc3)n2)cc1	2.1	0.647
Cc1ccccc1NC(=O)c1cc2cccc3c2n1CC(C)S3 (configuration not stated)	0.6	1.08

The list goes on:
SMILES	Ab BasE inh	KSHV LANA nucl
CN(C)CCCNC(=O)c1cc(Br)ccc1O	/	-0.332
Cc1cccc(N2CCN(CC(=O)NCC(F)(F)F)CC2C)c1 (configuration not stated)	0.9	/
NC(=O)c1ccccc1NC(=O)Cc1c(F)cccc1Cl	-2.2	0.107
c1cc(CN2CCCCC2)n(-c2nnc(N3CCCCCC3)s2)c1	-7.2	/
c1ccc(-n2nnnc2Oc2ccc(-n3ccnc3)cc2)cc1	0.5	/
Cc1oc(-c2ccccc2)nc1C(=O)OCc1cc(=O)oc2cc3c(cc12)CCC3	-2.9	/
O=C(OCc1cc(F)cc2c1OC(c1ccccc1)OC2)c1ccco1 (configuration not stated)	2.3	/
C/C(=N\NC(N)=S)C1CC2CCC1C2 (configuration not stated)	-0.3	/
CCOc1ccc(-c2nnc(NC(=O)Nc3ccccc3)o2)cc1	2.9	/
O/N=C/c1cccn1-c1ncc(C(F)(F)F)cc1Cl	/	0.654
COC(CNC1CCCc2c1[nH]c1ccc(C)cc21)OC (configuration not stated)	-2.2	0.452
COC(=O)/C(C#N)=C/c1ccc(C)o1	2.3	0.0535
COc1ccc(CNn2cnnc2SCc2ccc(F)cc2)cc1OC	-1.5	0.062
C=CCOc1ccc(/C(O)=C2\C(=O)C(=O)N(CCCN3CCOCC3)C2c2ccc(OC)c(OC)c2)c(C)c1 (configuration not stated)	1.9	0.241
Cc1cc(C(=O)COC(=O)c2ccc3c(=O)n4c(nc3c2)CCCCC4)c(C)n1C1CC1	-0.4	/

Look-ups from the results shown.
Ab BasE inh with Cc1cc(C(=O)COC(=O)c2ccc3c(=O)n4c(nc3c2)CCCCC4)c(C)n1C1CC1 : -0.4
Ab BasE inh with COc1ccc(C)cc1CN(C)c1ncnc2ccccc12 : 2.9

Continued:
SMILES	Ab BasE inh	KSHV LANA nucl
Cc1csc(SCC(=O)NC(=O)Cc2ccccc2)n1	-1.0	/
CCOC(=O)C1=C(C)N(C(=O)Oc2ccccc2)C(SC)=NC1c1ccccc1 (configuration not stated)	1.1	/
O=C(NCCn1cnc2cccnc21)N(c1ccccc1)c1ccccc1	2.8	-0.677
O=C(CN1CCN(c2ccc(C(F)(F)F)cn2)CC1)NC1CCCc2ccccc21 (configuration not stated)	-0.3	/
O=c1[nH]c2ccccc2n1CN1CCOCC1	1.6	/
COc1ccc(OC)c(NC(=O)c2cc3cccc4c3n2CC(C)S4)c1 (configuration not stated)	-1.9	0.438
CCCCn1c(-c2cccs2)nc2ccccc21	1.5	0.254
CCN(Cc1nc(-c2cccc(C)c2)no1)C(=O)c1ccc(Br)o1	0.9	0.524
COc1ccc(S(=O)(=O)N(CCC(=O)O)Cc2ccco2)cc1OC	0.1	/
O=C1NC(Cc2ccccc2)C(=O)N1c1ccccc1 (configuration not stated)	-0.1	0.712
CC(=O)NC1=NN(C(C)=O)C2(CCCC2)S1	2.2	-0.517
CC1Cc2ccccc2N1C(=O)Nc1cccc(F)c1 (configuration not stated)	0.2	-0.221
CCCC(=O)Nc1cccc(-c2nc3ccccc3c(=O)o2)c1	0.0	-1.04
Cc1ccc(Cn2ccsc2=NC(=O)CSc2nnc(-c3ccc4c(c3)OCO4)o2)cc1	1.3	/
CCCC1c2ccsc2CCN1C(=S)Nc1ccc(Cl)cc1Cl (configuration not stated)	0.4	/

Other compounds follow:
SMILES	Ab BasE inh	KSHV LANA nucl
C=C(C)c1cccc(C(C)(C)NC(=O)NC23CC4CC(CC(C4)C2)C3)c1	2.2	/
CN(CC(=O)Nc1ccccc1N1CCOCC1)Cc1ccc(Cl)cc1	-1.1	/
CC(=O)Nc1nnc(SCc2cc(=O)n3ccsc3n2)s1	0.6	0.718
COC(=O)c1sccc1NNC(=O)/C(C)=C/C(=O)O	3.2	-0.722
C#CCn1c(C2CC(=O)N(c3cccc(C(F)(F)F)c3)C2)nc2ccccc21 (configuration not stated)	1.0	/
CCCC(C(=O)NC1CCCC1)N(C(=O)Cn1nnc(-c2ccc(C)o2)n1)C1CCCC1 (configuration not stated)	-0.7	0.817
COc1cccc(NC2CC(=O)N(c3c(C)cccc3C)C2=O)c1 (configuration not stated)	2.4	/

Screening data as filed in PubChem.
